Screening results as filed in PubChem BioAssay.
PINK1 modulator: PINK1 expression modulation | AID 624263 | PINK1 immunofluorescence, high-content cytometry, 24 h | 410,000 tested, 0.2% active | Potency, µM (series often up to 76.6 µM), inactives show top-dose activation (PINK1 increase), hits mostly activators; active = well fitted activation curve with a large enough effect; inconclusive = small, poorly fitted or top-dose-only effect; inactive = flat fitted curve, though single readings scatter; cell line not stated here;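 further: potency means the concentration at half of the fitted maximal effect; % of control where 0% means no effect; nearly all actives have a fitted effect of over 65% in size; a mitochondrial uncoupler was the plate control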
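Measures PINK1 amount and localization on or inside mitochondria by immunofluorescence. Stable cells get compounds at 5 concentrations for 24 hours before fixation and staining; CCCP controls included.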
Six1-Eya2 inh: inhibitors of human Six1/Eya2 interaction; Q15475+O00167; AlphaScreen GST-Six1/His-Eya2 binding, biochemical; hits give low values; control for the full effect not named in the record; activity change, % (test concentration not listed); 360,000 tested, 0.56% active; AID 651725; in the data active = activity change below about -65%; inconclusive = about -30% to -65%; inactive = above about -30%; further: on the % scale 0 is the no-effect control and ±100 the full control effect; compound concentration not given in the record
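AlphaScreen luminescence read after one hour at 37 °C in darkness. Pin-transferred compounds met GST-Six1 and His-Eya2 protein (5X stock 250 nM/500 nM) plus glutathione donor and Ni-chelate acceptor beads (5X, 50 ug/mL).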
D2 PAM: potentiates the human D2 dopamine receptor allosterically; DiscoveRx D2 beta-arrestin cells, luminescence, 90 min; 100% = 57 uM dopamine signal; P14416; potentiation, % (concentration not given with the values); 360,000 tested, 0.23% active; active = potentiation of 50% or more; inconclusive = 30% to 50%; inactive = 30% or less;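 further: compound concentration not given in the record; tested on top of an EC20 dose of dopamine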
Target sequence (P14416 whole entry, looked up): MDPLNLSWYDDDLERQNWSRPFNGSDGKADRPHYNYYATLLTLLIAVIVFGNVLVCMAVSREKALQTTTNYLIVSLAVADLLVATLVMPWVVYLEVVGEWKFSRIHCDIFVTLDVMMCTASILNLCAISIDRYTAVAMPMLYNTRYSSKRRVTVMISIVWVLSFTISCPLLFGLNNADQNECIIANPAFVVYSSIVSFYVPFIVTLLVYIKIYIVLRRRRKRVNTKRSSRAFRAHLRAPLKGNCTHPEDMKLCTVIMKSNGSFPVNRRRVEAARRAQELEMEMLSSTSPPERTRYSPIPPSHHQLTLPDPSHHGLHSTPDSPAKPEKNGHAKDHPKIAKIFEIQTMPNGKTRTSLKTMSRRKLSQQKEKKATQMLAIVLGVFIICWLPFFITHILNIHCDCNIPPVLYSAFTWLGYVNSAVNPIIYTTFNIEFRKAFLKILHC
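D2 cells co-treated with compound plus 50 nM dopamine (EC20) for 90 min at 37 deg C to detect potentiation. Beta-arrestin recruitment was read as enzyme-fragment luminescence after 1 h at ambient temperature. Full response was set by 57 uM dopamine.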
TRPML1 ag: agonists of human TRPML1 channel; Q9GZU1; TRPML1-expressing cells, Ca2+ dye fluorescence, FDSS; host cell line not named in the record; reference of the full effect not given here; activation, % (test concentration not listed); 410,000 tested, 0.12% active; AID 624414; in the data active = activation above about 50%; inconclusive = about 30% to 50%; inactive = below about 30%; further: 0% is about no effect; the text of the record puts the active cut at 80%
Target sequence (Q9GZU1 whole entry, looked up): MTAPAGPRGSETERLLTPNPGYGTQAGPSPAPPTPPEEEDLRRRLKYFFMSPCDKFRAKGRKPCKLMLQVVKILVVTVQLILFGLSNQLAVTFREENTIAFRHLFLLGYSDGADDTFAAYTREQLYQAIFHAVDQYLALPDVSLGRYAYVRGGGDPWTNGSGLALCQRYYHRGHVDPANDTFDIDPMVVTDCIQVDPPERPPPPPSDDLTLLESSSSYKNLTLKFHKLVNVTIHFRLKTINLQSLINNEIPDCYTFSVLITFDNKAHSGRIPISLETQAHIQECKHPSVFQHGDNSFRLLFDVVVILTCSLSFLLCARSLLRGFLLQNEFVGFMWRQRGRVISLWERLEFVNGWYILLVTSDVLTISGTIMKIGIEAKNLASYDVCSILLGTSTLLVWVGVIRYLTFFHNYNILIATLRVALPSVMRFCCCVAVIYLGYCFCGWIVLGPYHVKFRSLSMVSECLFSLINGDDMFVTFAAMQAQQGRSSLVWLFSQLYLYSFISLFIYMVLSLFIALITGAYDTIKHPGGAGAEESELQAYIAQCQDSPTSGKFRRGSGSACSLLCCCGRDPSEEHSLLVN
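Cells: TRPML1-DL, 1X Tet inducer, ~16 h at 37 degrees C/5% CO2. Dye: ABD Ca8 no-wash + quencher, 45-90 min RT. Read: 10 s baseline, compound add, 110 s agonist phase; 54-4 EC80 (4uM final), 110 s antagonist phase.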
D2 ag: activates the human D2 dopamine receptor | P14416 | DiscoveRx PathHunter D2 beta-arrestin, luminescence, 90 min; 100% = 57 uM dopamine signal | activation, % (no concentration beside the values) | 360,000 tested, 0.084% active | AID 624465; in the data active = activation above about 40%; inconclusive = about 15% to 40%; inactive = below about 15%; further: compound concentration not given in the record; the text of the record calls up to 30% inactive
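DiscoveRx PathHunter D2 beta-arrestin cells (2,100/well) attached overnight, then compound-stimulated 90 min at 37 C in HBSS/10 mM HEPES/0.1% Tween-20 buffer; beta-galactosidase complementation read by luminescence after 1 h at ambient temperature. Dopamine 57 uM final (EC100) as control.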
CtBP-E1A blk: inhibitors of CtBP/E1A interaction; AlphaScreen GST-E1A/His-CtBP binding, 1536-well; hits give low values; control for the full effect not named in the record; activity change, % (concentration not given with the values); 340,000 tested, 0.49% active; AID 651724; in the data active means activity change below about -65%; inconclusive means about -30% to -65%; inactive means above about -30%; further: on the % scale 0 is the no-effect control and ±100 the full control effect
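GST-E1A and His-tagged CtBP (125 nM each as 5X stock) were preincubated with pin-transferred compound for 2 h at 37 °C in the dark, then glutathione donor and nickel acceptor beads were added for 1 h before AlphaScreen reading.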
* = called active by the depositor; u = inconclusive; x = not tested or not shown; & = joins results of further samples; [ ] = another dose, or the depositor's remark. Compounds as they come. Share with any hit: about 1.3%.

1. FC(F)(F)c1cc(Oc2ccccc2)ncc1-c1nnc(-c2ccccc2Cl)o1
2. C/C=C/c1ccc(OCCn2nnc3ccccc32)c(OC)c1
3. Cc1ccc(C(=O)Nc2ccncc2)cc1S(=O)(=O)N1CCCCC1
4. Cc1cc(Nc2nc(Cl)c(Cl)cc2Cl)n(-c2ccccc2)n1
5. C/C(=N\NC(=O)C1COc2ccccc2O1)c1ccc(Cl)s1 (stereo not given)
6. COc1ccc(CNC(=O)CN(Cc2ccccc2Cl)C(=O)c2csnn2)cc1
7. CCCCCCN1C=CC(=C/C=C(\C#N)C(=O)OCC)C=C1
8. Cc1nc(CC(C)C)cc(C(=O)N2CCCC(CNS(=O)(=O)c3cccs3)C2)n1 (stereo not given)
9. COc1ccc(CCNC(=O)c2ccc3ccccc3n2)cc1OC
10. O=C(C[n+]1ccccc1)c1ccc(Cl)cc1

| Assay by compound | 1 | 2 | 3 | 4 | 5 | 6 | 7 | 8 | 9 | 10 |
| --- | --- | --- | --- | --- | --- | --- | --- | --- | --- | --- |
| PINK1 modulator | 0.7% | 0.0% | 1.0% | 6.9% | 0.8% | 1.0% | 13µM* | -0.8% | -1.3% | 2.9% |
| Six1-Eya2 inh | -3 | -7 | -1 | 8 | -2 | -16 | -9 | -2 | -1 | 8 |
| D2 PAM | 5 | 0 | -12 | -8 | -8 | -6 | -4 | -7 | -2 | -9 |
| TRPML1 ag | 2.4 | -1.1 | -0.6 | 1.7 | 1.3 | -1.1 | 60* | 1.5 | 4.0 | 0.2 |
| D2 ag | 5.5 | u | -1.8 | -5.8 | -4.7 | -0.4 | 6.9 | -4.2 | 6.6 | -3.2 |
| CtBP-E1A blk | x | x | -18 | -4 | 0 | -2 | 8 | -15 | -2 | x |

11. COc1cccc(NC(=O)C2(C)CCN2Cc2ccc(-c3ccccc3)o2)c1 (stereo not given)
12. COC(=O)CSc1nc2c(c(-c3ccc(C)o3)c1C#N)CCCC2
13. COc1ccc(-c2noc(CCC(=O)NCCCN3CCN(c4ccc(F)cc4)CC3)n2)cc1
14. CCNC(=O)C1(C)CCCN1Cc1cccc(C(F)(F)F)c1 (stereo not given)
15. COc1ccc(-c2ncc(CN3CCC(CO)(Cc4cccc(OC)c4)CC3)cn2)cc1
16. COc1cc(CN2CCC(C(=O)N3CCCC(C)C3)CC2)cc(OC)c1O (stereo not given)
17. Cc1nc(NS(=O)(=O)c2ccccc2)sc1NC(=O)Nc1ccccc1
18. COc1cc2c(cc1OC)CC(=O)NC=C2
19. CC(=O)N1CCN(S(=O)(=O)c2ccccc2)C1c1ccccc1 (stereo not given)
20. O=C(Nc1ccccc1N1CCCC1)c1ccc(F)c(S(=O)(=O)N2CCOCC2)c1

| Assay by compound | 11 | 12 | 13 | 14 | 15 | 16 | 17 | 18 | 19 | 20 |
| --- | --- | --- | --- | --- | --- | --- | --- | --- | --- | --- |
| PINK1 modulator | -0.7% | u | 3.1% | 2.4% | 4.4% | -0.2%[38.3 µM] | -0.9% | 2.4% | 0.2%[38.3 µM] | -0.8% |
| Six1-Eya2 inh | 0 | 3 | -2 | 3 | -13 | 2 | 0 | 5 | 5 | -3 |
| D2 PAM | -9 | -13 | -4 | 2 | -17 | -4 | 1 | -3 | -6 | -16 |
| TRPML1 ag | -0.1 | 2.0 | 0.2 | -0.8 | x | 0.4 | 0.3 | 0.8 | -0.3 | 0.6 |
| D2 ag | -3.3 | -2.0 | -1.9 | -1.3 | -0.9&-2.6 | -2.5 | u | -0.6 | 0.7 | -1.0 |
| CtBP-E1A blk | -22 | 11 | 2 | 11 | u | 9 | -11 | -1 | 3 | 1 |

21. COc1ccccc1NCc1nnc(-c2ccccc2)o1
22. CC(C)C(=O)Nc1ccc(C(=O)Nc2nnc(C(C)C)s2)cc1
23. CNC(=O)CN(C1CCCCC1)S(=O)(=O)c1ccc(F)cc1
24. Cc1ccc(N2C(=O)N3[C@H](c4ccc(F)cc4)[C@@H]4C(=O)N(C5CCCCC5)C(=O)[C@@H]4[C@]3(Cc3ccccc3)C2=O)cc1
25. CC(=O)c1ccc(Oc2nc(-c3cccnc3)nc3ccccc23)cc1
26. Cc1cccc(N2CCN(c3ccc(NC(=O)/C=C\C(=O)O)cc3)CC2)c1
27. NC(=O)C1CCN(C(=O)COc2ccc3ccccc3c2Br)CC1
28. CCOC(OCC)c1cc2ccccc2cn1
29. COc1ccc(Nc2ccc([N+](=O)[O-])cc2[N+](=O)[O-])cc1
30. Cc1ccccc1NS(=O)(=O)c1cc(C(=O)NCc2ccco2)ccc1C

| Assay by compound | 21 | 22 | 23 | 24 | 25 | 26 | 27 | 28 | 29 | 30 |
| --- | --- | --- | --- | --- | --- | --- | --- | --- | --- | --- |
| PINK1 modulator | -0.7% | -0.1% | 1.3% | 0.2% | -0.7% | 0.1% | 2.5% | -0.2% | 1.0% | -1.0%[38.3 µM] |
| Six1-Eya2 inh | -8 | 2 | -1 | -3 | -2 | -16 | 8 | -2 | u | -13 |
| D2 PAM | 3 | 0 | -4 | -42 | -5 | -6 | -1 | -6 | 3 | -6 |
| TRPML1 ag | -0.9 | 1.3 | -0.4 | 0.6 | 0.7 | -0.4 | 0.2 | 2.5 | 0.0 | 0.0 |
| D2 ag | 0.5 | 2.1 | -0.7 | -3.3 | -2.4 | 4.0 | -1.8 | -1.7 | 7.7 | -1.7 |
| CtBP-E1A blk | -1 | x | -4 | -4 | -11 | x | 4 | -1 | -13 | -23 |

Arranged by value in D2 ag (smallest number first): some entries from above
cpd	molecule	PINK1 modulator	Six1-Eya2 inh	D2 PAM	D2 ag	CtBP-E1A blk
24	Cc1ccc(N2C(=O)N3[C@H](c4ccc(F)cc4)[C@@H]4C(=O)N(C5CCCCC5)C(=O)[C@@H]4[C@]3(Cc3ccccc3)C2=O)cc1	0.2%	-3	-42	-3.3	-4
28	CCOC(OCC)c1cc2ccccc2cn1	-0.2%	-2	-6	-1.7	-1
21	COc1ccccc1NCc1nnc(-c2ccccc2)o1	-0.7%	-8	3	0.5	-1
29	COc1ccc(Nc2ccc([N+](=O)[O-])cc2[N+](=O)[O-])cc1	1.0%	u	3	7.7	-13

New compounds follow
31. O=C(CN1C(=O)/C(=C/c2ccccc2F)Sc2ccccc21)NCCCN1CCOCC1
32. CSCCC1Nc2ccc(S(=O)(=O)N3CCOCC3)cc2NC1=O (stereo not given)
33. CC(=O)c1c(-c2ccccc2)c2ccccc2[nH]c1=O
34. Cn1cc(S(=O)(=O)N2CCN(c3ccc(F)cc3)CC2)c(=O)n(C)c1=O
35. CCOc1ccccc1NS(=O)(=O)c1cc2c3c(c1)CC(=O)N3CCC2
36. CCOC(=O)Cc1csc(NC(NC(=O)CC)(C(F)(F)F)C(F)(F)F)n1
37. Cc1noc(C)c1NC(=O)Nc1ccc2c(c1)C(=O)N([C@H](C)CO)C[C@H](C)[C@@H](CN(C)S(=O)(=O)c1cccs1)O2
38. COC(=O)c1ccccc1OC(=O)c1cccnc1
39. COc1ccc2oc(C(=O)OCC(=O)N3CC(C)CC(C)C3)c(C)c2c1 (stereo not given)
40. COCCCNCCOCCOc1ccc(Cl)cc1C(C)(C)C

| Assay by compound | 31 | 32 | 33 | 34 | 35 | 36 | 37 | 38 | 39 | 40 |
| --- | --- | --- | --- | --- | --- | --- | --- | --- | --- | --- |
| PINK1 modulator | 2.1% | 0.2% | 1.4% | -0.3% | -0.4% | -0.5% | 0.3% | u | -0.2% | -3.9% |
| Six1-Eya2 inh | -12 | 1 | 0 | 1 | 1 | -4 | -9 | 2 | 2 | -1 |
| D2 PAM | -9 | -1 | -16 | -1 | -6 | -4 | -8 | -6 | 10 | -41 |
| TRPML1 ag | -0.6 | -0.5 | 1.3 | -0.6 | 0.1 | -0.6 | 0.2 | 0.3 | 1.2 | 2.0 |
| D2 ag | -3.4 | -0.7 | -0.2 | 2.7 | -3.7 | -1.3 | -1.7 | 1.2 | -3.1 | -6.6 |
| CtBP-E1A blk | -14 | 6 | -14 | -1 | -3 | 0 | -2 | 0 | -7 | 14 |

41. Cc1cc(C)c2c(N)c(C(=O)NN)sc2n1
42. COc1cc(OC)cc(C(=O)n2cnnc2N)c1
43. O=C(COC(=O)c1cccnc1Nc1cccc(C(F)(F)F)c1)NC1CCS(=O)(=O)C1 (stereo not given)
44. Cn1c(=O)[nH]c(=O)c2c1nc(N1CCCCCC1)n2CCOc1ccccc1
45. NS(=O)(=O)c1ccc(CCNC(=O)CCC2COc3ccccc3O2)cc1 (stereo not given)
46. COCCCNC(=O)Cn1cnc2c(NCc3ccccc3)ncnc21
47. Cc1nc(SCc2ccc(C(=O)O)cc2)nc2c1CCCC2
48. CC(C)c1ccc(CN(C)C(=O)c2ccc(S(=O)(=O)NCc3ccco3)cc2)cc1
49. CCOC(=O)Cc1ccc(Nc2nc(NCc3cccs3)nc3ccsc23)cc1
50. CC(C)N(C(=O)CN1CCN(C(=O)C2COc3ccccc3O2)CC1)C(C)C (stereo not given)

| Assay by compound | 41 | 42 | 43 | 44 | 45 | 46 | 47 | 48 | 49 | 50 |
| --- | --- | --- | --- | --- | --- | --- | --- | --- | --- | --- |
| PINK1 modulator | 11% | 0.3% | 5.9% | -0.9% | 0.7% | -0.5% | 2.4% | 3.1% | 5.2% | -0.6% |
| Six1-Eya2 inh | u | -6 | 2 | 0 | 6 | 4 | 0 | -9 | -6 | 1 |
| D2 PAM | -1 | -15 | -8 | -3 | -4 | 2 | 3 | -2 | 2 | 0 |
| TRPML1 ag | x | -0.1 | 0.6 | 1.1 | -0.1 | -0.2 | 0.9 | 2.6 | 1.1 | 0.2 |
| D2 ag | -3.4 | -3.5 | 2.2 | 1.0 | -1.0 | -0.7 | -0.2 | 0.1 | -0.9 | -1.8 |
| CtBP-E1A blk | u | -14 | 11 | -10 | -1 | 6 | -13 | x | -7 | x |

One compound at a time, from the list above:
Cc1nc(SCc2ccc(C(=O)O)cc2)nc2c1CCCC2 is listed as PINK1 modulator: 2.4%; Six1-Eya2 inh: 0; D2 PAM: 3; TRPML1 ag: 0.9; D2 ag: -0.2; CtBP-E1A blk: -13
CC(C)c1ccc(CN(C)C(=O)c2ccc(S(=O)(=O)NCc3ccco3)cc2)cc1 is listed as PINK1 modulator: 3.1%; Six1-Eya2 inh: -9; D2 PAM: -2; TRPML1 ag: 2.6; D2 ag: 0.1; CtBP-E1A blk: x

(more compounds)
51. COCCn1c(C(F)(F)F)ccc(NC(=O)c2ccccc2)c1=O
52. Cc1ccc(NC(=O)COC(=O)CSCC(=O)Nc2cc(C)on2)c(C)c1
53. CCc1ccccc1N(C)C(=O)CCc1nc(-c2ccc(C)cc2)no1
54. O=C(NC(Cc1c[nH]c2ccccc12)C(=O)N/N=C/c1cccc2ccccc12)c1cccs1 (stereo not given)
55. COc1ccccc1NC(=O)CSc1nnc(CNC(=O)COc2ccc(Cl)cc2)o1

| Assay by compound | 51 | 52 | 53 | 54 | 55 |
| --- | --- | --- | --- | --- | --- |
| PINK1 modulator | -1.3% | -0.6% | -0.3% | 0.5% | -0.8% |
| Six1-Eya2 inh | 10 | 3 | 8 | -11 | -1 |
| D2 PAM | 1 | -10 | -44 | -4 | -3 |
| TRPML1 ag | -0.5 | -0.3 | 2.7 | 4.9 | 0.2 |
| D2 ag | -0.6 | -2.0 | -0.8 | 0.0 | -4.8 |
| CtBP-E1A blk | 3 | 3 | 11 | -20 | 4 |
